Screening results: PubChem BioAssay, several laboratories
Yeast UUG start: modulators of start codon recognition fidelity in yeast; S. cerevisiae UUG-firefly luciferase reporter, luminescence/redox ratio; activity score, % at 18.7 µM; 350,000 tested, 0.13% active;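 active = replicate mean at a twofold rise or more, about +100% in these data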;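 also: firefly luciferase made from a UUG start codon reports start codon fidelity; reporter light over untreated wells divided by growth signal over untreated wells; some hits fall short of that in this replicate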
CSC inhib: blocks cancer stem cells; cancer stem cell-like cells viability, luminescence; inhibition, % at 7.5 µM; 300,000 tested, 1.1% active;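 active = mean at 75% or more and at least half the replicates too; inconclusive = mean and replicates disagree; tested in HMLE shEcad cells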;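 also: 0% = median of negative and 100% = median of positive control wells; the first replicate is given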
PABP FP inh: blocks human PABP binding to poly(A) RNA | 290,000 tested, 1% active | AID 2014 | inhibition, % at 35 µM | fluorescence polarization;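 active = 50% or more with normal probe brightness, or confirmed in later tests; inconclusive = above 50% with abnormal brightness, or retests that disagree; inactive = below 50% or failed in later tests; about a fifth of its hits are not listed in these tables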;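 also: calls also rest on retests at 20 µM and on dose response follow-up; controls were probe without protein and protein plus probe with vehicle; some compounds called inactive have numbers as strong as hits; many hits fall short of the cut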
Target sequence (P11940 whole entry, looked up): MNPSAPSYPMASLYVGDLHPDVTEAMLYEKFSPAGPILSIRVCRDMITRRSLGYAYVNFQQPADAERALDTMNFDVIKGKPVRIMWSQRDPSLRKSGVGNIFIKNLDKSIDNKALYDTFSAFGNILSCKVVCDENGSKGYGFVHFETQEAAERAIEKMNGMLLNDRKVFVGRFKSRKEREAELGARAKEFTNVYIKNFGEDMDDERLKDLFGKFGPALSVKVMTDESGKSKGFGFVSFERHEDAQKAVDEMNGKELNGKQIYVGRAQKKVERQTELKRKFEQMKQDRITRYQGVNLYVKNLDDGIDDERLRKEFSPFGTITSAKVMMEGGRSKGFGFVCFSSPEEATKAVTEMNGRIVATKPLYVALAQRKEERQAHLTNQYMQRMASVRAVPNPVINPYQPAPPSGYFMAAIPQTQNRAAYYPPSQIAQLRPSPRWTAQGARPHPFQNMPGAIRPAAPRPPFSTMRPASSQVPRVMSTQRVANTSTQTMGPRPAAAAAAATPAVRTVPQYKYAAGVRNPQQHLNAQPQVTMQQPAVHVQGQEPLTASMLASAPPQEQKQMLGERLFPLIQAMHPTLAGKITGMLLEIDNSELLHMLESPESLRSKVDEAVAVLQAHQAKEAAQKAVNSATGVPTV
MT1-MMP act inh: inhibitors of human MT1-MMP activation; AID 651647; 360,000 tested, 0.061% active; P50281; HT1080 RFP-PRO-GFP cells, GFP/RFP ratio fluorescence, overnight; percent of plate control window, DMSO zero; GFP/RFP ratio change, % at 20 µM;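 active = GFP/RFP ratio change of at least 30% with cell ATP level not reduced by more than half and red fluorescence within 50% of control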; also: strong numbers were not always called active
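Read-out: GFP/RFP fluorescence ratio; Test system: RFP-PRO-GFP reporter HT1080 cells; Compound dosing: single-point 20 µM compound, 1% DMSO; Times: overnight compound exposure at 37 °C.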
eIF4H FP inh: inhibitors of RNA binding by human eIF4H. Q15056. eIF4H fluorescence polarization binding assay. inhibition, % at 35 µM. 290,000 tested, 0.94% active. AID 2012;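 active = 50% or more with normal probe brightness, or confirmed in later tests; inconclusive = above 50% with abnormal brightness, or retests that disagree; inactive = below 50% or failed in later tests; about a fifth of its hits are not listed in these tables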;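 also: calls also rest on retests at 20 µM and on dose response follow-up; 0% = protein and probe with vehicle and 100% = probe without protein; strong numbers were not always called active; many hits fall short of the cut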
HIV Env fusion: HIV envelope-mediated fusion inhibition; 360,000 tested, 1.1% active; AID 651610; inhibition, % at 12.3 µM; HeLa-JRFL Env/CEM21 cell fusion, luciferase;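 active = mean replicate inhibition score of at least 50 and every replicate individually at or above 50; inconclusive = only one of the two criteria met; inactive = mean below 50 and not all replicates reaching 50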;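 also: 0% = plate neutral controls and 100% = maraviroc near 300 nM; one replicate is shown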
Rce1 inh: inhibitors of yeast Ras-converting enzyme | Q03530 | calls only | yeast membranes, quenched prenylated peptide cleavage fluorescence | 290,000 tested, 0.27% active;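 active = fall in fluorescence gain of 50% or more versus controls, with final raw signal at or below 3038400; inconclusive = same 50% fall but final raw signal above 3038400; inactive = fall in fluorescence gain under 50%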;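 also: plate controls were neutral control wells for no effect and wells lacking membranes for full effect; tested at 10 µM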
MT1-MMP act inh RFP: second read-out of MT1-MMP act inh, no call of its own (marks repeat the call); RFP signal change, %; measured here: RFP expression control read;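 0 = vehicle wells; hits needed this value within 50% of zero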
Numbers without * were called inactive; i = inactive; ? = inconclusive; . = no result given; + = active, no number; & = joins results of further samples.

SMILES	Yeast UUG start	CSC inhib	PABP FP inh	MT1-MMP act inh	MT1-MMP act inh RFP	eIF4H FP inh	HIV Env fusion	Rce1 inh
CCc1ccc(CN(C)C(=O)c2cc(=O)c3ccccc3o2)cc1	3	4	9	5	-4	4	3	.
CC1(C)c2[nH]c3ccccc3c2C[C@H]2C(=O)N(Cc3ccccc3F)C(=O)N21	-5	0	.	13	-7	.	11	i
Cc1ccc(C2c3[nH]c4ccccc4c3C[C@H]3C(=O)N(c4ccccc4C(=O)NCCN4CCOCC4)C(=O)N23)cc1 (stereo partly specified)	1	-11	-5	-7	-5	-1	.	.
COc1c(/C=N/NC(=O)[C@H]2C[C@@H]2c2ccccc2)c(CCN(C)C(C)=O)cc2c1OCO2	-6	-1	-7	-2	-3	-12	4	i
O=C1CCC(=O)N1OCCCOc1ccc(Br)cc1Cl	-5	.	4	0	1	-2	.	i
O=C(CN1C(=O)C2CC=CCC2C1=O)Nc1nc2ccc(F)cc2s1 (stereo unspecified)	.	-3	6	-4	0	-14	16	i
NC(=O)c1nn(-c2ccccc2)nc1NC(=O)CN1CCCC1	-12	-11	-4	-2	5	-8	3	i
O=C(/C=C/c1ccco1)N(Cc1ccc(Cl)cc1)C1CCS(=O)(=O)C1 (stereo unspecified)	.	-20	6	1	0	-2	4	i
Cc1sc2nc(SCC(=O)NCc3ccco3)n(-c3ccccc3)c(=O)c2c1C	-32	0	10	1	-2	-10	.	i
O=C(N/N=C\c1cn[nH]c1-c1ccccc1)c1cccnc1	-17	-7	-10	2	7	0	.	i
CC1=C(C(=O)O)N2C(=O)C(NC(=O)c3nn(C)cc3Cl)C2SC1 (stereo unspecified)	-12	-3	4	7	5	1	.	i
CCc1cc(=O)oc2c(CN3CCCC3)c(O)c(Cl)cc12	-22	0	48	1	7	47	-20	?
O=C(N/C(=C\c1ccc(Br)cc1)C(=O)N1CCCC1)c1cccs1	.	-7	-2	0	-2	1	-39	i
CCOC(=O)CSc1nnc(CNc2ccc(Cl)cc2)n1Cc1ccccc1	.	-3	-7	-4	2	-2	.	i
COc1cccc(CNC(=O)CCC2CCCN(C(=O)c3cccc(Cl)c3)C2)c1 (stereo unspecified)	-11	-8	10	1	1	-2	-6	i
CCN(CC)CCCN(Cc1cc2cc3c(cc2[nH]c1=O)OCCO3)C(=O)Nc1ccccc1	-13	-5	-4	-9	2	-11	.	i
O=C(CCSc1ccccc1)N1CCCC1	1	18	-6	1	-8	-10	-5	i
O=C(c1ccc2c(c1)OCO2)C1CCCN(Cc2cc(F)ccc2-n2cccn2)C1 (stereo unspecified)	.	3	-7	2	2	-8	3	i
CC(=O)N1c2ccccc2C(=O)OC1c1cccnc1 (stereo unspecified)	-11	0	-7	3	6	0	.	i
CCc1ccccc1NC(=O)N[C@@H](C)C(=O)OC	.	5	0	0	7	6	.	i
Cc1c(C(=O)NCCCN2CCOCC2)sc2ncnc(N3CCN(c4ccccc4)CC3)c12	-11	.	-9	0	-1	3	.	.
CCOC(=O)C1=CCN(S(=O)(=O)c2ccccc2F)C1c1cccc(C)c1 (stereo unspecified)	-8	.	.	0	-6	.	9	.
COc1ccc(-c2csc(N)n2)cc1F	.	-22	14	5	4	-6	-39	i
Cc1ccccc1-n1ncc2c([N+](=O)[O-])cc([N+](=O)[O-])cc21	.	55	-1	-5	-1	8	.	i
O=C(Nc1ccncc1)c1cn(-c2ccccc2)nc1-c1cccs1	-16	28	-9	3	-8	-11	-28	.
COc1cc(NC(=O)c2cc(OC)c(OC)c(OC)c2)cc(-n2cnnn2)c1	-29	-3	4	8	-3	-1	-4	.
COC(CN(C)C(C(=O)NC1CCCCC1)c1ccccc1)OC (stereo unspecified)	-17	-4	0	3	5	-3	-4	i
Cc1nn(Cc2noc(C(=O)NCc3ccc4c(c3)OCO4)n2)c(C)c1Br	-10	9	-8	0	0	-6	-4	.
O=C(CCc1c[nH]c2ccccc12)N1CCCC1	-18	0	6	0	0	-9	-3	i
Cc1ccc(CCNC(=O)Cn2ncc3c([nH]c4ccccc43)c2=O)cc1	-19	3	8	0	3	-8	-4	i
CCCn1c(-c2ccc(C(=O)OC)cc2)nc2c1c(=O)[nH]c(=O)n2Cc1ccccc1	-12	-7	7	3	-2	3	1	i
COc1ccccc1C(=O)NCC(=O)NC(C)c1ccc(-n2ccnc2)cc1 (stereo unspecified)	-25	15	-4	2	2	12	6	i
CCOC(=O)c1cc(S(=O)(=O)N2CCC(C)CC2)cn1C	-23	-8	.	2	3	.	4	i
CC(=O)NCC1CCCN(Cc2cn(-c3ccccc3F)nc2-c2cc(C)sc2C)C1 (stereo unspecified)	.	-1	1	2	0	-5	24	i
Nc1ccccc1SCc1ccccc1Cl	-7	-6	-2	-5	-2	-4	2	i
COc1ccc(CCNC(=O)c2ccccc2NC(=O)C2=C(C)OCCS2)cc1OC	-12	6	-11	0	-2	1	-1	i
C1=CCN(Cc2ccccc2)C1	-4	-14	0	2	6	8	-8	i
CCO/C=C1/C(=O)N(c2ccccc2OC)C(=O)c2ccccc21	5	-6	9	3	6	5	9	i
COCCNC(=O)c1onc(CSc2cccc(C)c2)c1C(=O)O	-13	2	6	-2	3	-9	10	i
COc1ccc(Cl)cc1NC(=O)Nc1cnccn1	-6	-1	-8	-9	-3	-9	71*	i

Structures listed so far printed as active in HIV Env fusion.
structure | Yeast UUG start | MT1-MMP act inh | MT1-MMP act inh RFP | HIV Env fusion | Rce1 inh
COc1ccc(Cl)cc1NC(=O)Nc1cnccn1 | -6 | -9 | -3 | 71* | i

Going on with the list:
SMILES	Yeast UUG start	CSC inhib	PABP FP inh	MT1-MMP act inh	MT1-MMP act inh RFP	eIF4H FP inh	HIV Env fusion	Rce1 inh
CCCC(=O)Nc1ccc(-c2nc3cc(C)ccc3o2)cc1	-24	48	-6	6	1	-2	-312	i
O=C(/C=C/c1ccc(Br)cc1)NC1CCCCCC1	-18	-1	-4	7	2	-11	4	i
COc1ccc(CNC(=O)C(C)n2nc(C)n3c(cc4occc43)c2=O)cc1 (stereo unspecified)	-29	-19	6	-1	1	9	-1	i
Cc1ccc(C)c(OCCCN2CCNCC2)c1	1	-8	13	-2	2	-12	2	i
CC(NC(=O)C1CCN(c2nnc(-n3cccc3)s2)CC1)C12CC3CC(CC(C3)C1)C2 (stereo unspecified)	7	-6	-4	-6	-3	4	.	i
Cc1cc(C)nc(-n2nc(C)c(C3(O)C(=O)Nc4ccc(F)cc43)c2N)n1 (stereo unspecified)	-38	1	-8	2	12	-2	.	i
Cc1cccc(NS(=O)(=O)c2ccc(NC(=O)N3CCCCC3)cc2)c1	-9	-7	-4	-6	-26	9	26	i
CC(=O)N1CCn2c3ccc(C)cc3c3cccc1c32	-2	-6	0	-3	-1	3	i	i
CCOC(=O)C(C)/C(C)=N\Nc1ccc([N+](=O)[O-])cc1[N+](=O)[O-] (stereo unspecified)	.	-1	17	10	2	-10	10	i
O=C(Nc1ccccc1Oc1ccccc1)C1CC1	-9	-5	0	0	2	-2	.	i
O=c1c2ccccc2[nH]c(=S)n1Cc1ccc2c(c1)OCO2	-17	-15	5	-4	-7	2	-9	i
Cc1nc(CC(=O)Nc2nc(C(C)(C)C)cs2)cs1	-17	-9	-1	-7	-3	0	41	i
C[C@@H]1CCC[C@]2(O[C@H](CCO)C[C@@H](O)[C@@H]2O)O1	3	-7	.	-4	7	.	-40	i
O=C(CSc1nnc(-c2cnccn2)n1Cc1ccco1)Nc1ccc(Br)cc1	-15	-11	4	0	-1	-6	.	i
Cc1cccc(N2CCN(C(=O)C3CCN(S(=O)(=O)c4cccc5cccnc45)CC3)CC2C)c1 (stereo unspecified)	-12	-24	-2	3	-5	-6	20	i
COCCn1c(=O)[nH]c2cc(C(=O)Nc3cc(OC)c(OC)c(OC)c3)ccc2c1=O	-22	3	0	2	2	5	-9	i
CC(=O)c1c(C)nn(CC(O)COc2ccc3ccccc3c2)c1C (stereo unspecified)	.	1	-2	3	-9	-8	13	i
COc1ccc(NC(=O)CC2CCCC2)cc1S(=O)(=O)N1CCCCC1	.	3	3	1	-1	6	-15	i
CCCCn1c(/N=C/c2ccc(N(C)C)cc2)nc2ccccc21	-10	-3	4	3	5	-1	-38	i
COCCNc1nc(Oc2ccc(C(N)=O)cc2)c2sccc2n1	1	.	.	-1	5	.	9	.

Six records drawn at random from the list so far:
SMILES	Yeast UUG start	CSC inhib	PABP FP inh	MT1-MMP act inh	MT1-MMP act inh RFP	eIF4H FP inh	HIV Env fusion	Rce1 inh
Cc1cc(C)nc(-n2nc(C)c(C3(O)C(=O)Nc4ccc(F)cc43)c2N)n1 (stereo unspecified)	-38	1	-8	2	12	-2	.	i
CCCC(=O)Nc1ccc(-c2nc3cc(C)ccc3o2)cc1	-24	48	-6	6	1	-2	-312	i
CC(=O)c1c(C)nn(CC(O)COc2ccc3ccccc3c2)c1C (stereo unspecified)	.	1	-2	3	-9	-8	13	i
CCOC(=O)C(C)/C(C)=N\Nc1ccc([N+](=O)[O-])cc1[N+](=O)[O-] (stereo unspecified)	.	-1	17	10	2	-10	10	i
CCCCn1c(/N=C/c2ccc(N(C)C)cc2)nc2ccccc21	-10	-3	4	3	5	-1	-38	i
O=c1c2ccccc2[nH]c(=S)n1Cc1ccc2c(c1)OCO2	-17	-15	5	-4	-7	2	-9	i

(list continues)
SMILES	Yeast UUG start	CSC inhib	PABP FP inh	MT1-MMP act inh	MT1-MMP act inh RFP	eIF4H FP inh	HIV Env fusion	Rce1 inh
CN(C(=O)c1ccccc1Cl)c1ccccc1C(=O)NCc1ccccc1	-7	7	-6	-3	0	-2	5	i
Cc1ccccc1NCc1ccccc1O	-5	10	8	7	2	-3	.	i
Cc1ccc(/C=N/n2c(C)nnc2C)cc1	-21	-11	-3	1	4	3	.	i
CCOC(=O)CC(/C(C)=N\O)c1ccccc1 (stereo unspecified)	1	-16	4	4	4	-8	-25	i
C[C@H]1CN([C@@H](C)CO)C(=O)CCCn2nncc2CO[C@H]1CN(C)C(=O)C1CCCCC1	-13&-4	.	.	1	3	.	-3	.
Clc1nc(NCc2ccco2)nc(N2CCCCC2)n1	.	-12	-2	-4	-11	-3	11	i
O=C(NCCc1ccc(Cl)cc1)/C(=C/c1cccnc1)NC(=O)c1ccccc1	-11	47	-2	0	1	-2	8	i
O=C1N[C@H](Cc2ccccc2)COC(=O)[C@H](Cc2ccc(F)cc2)C/C=C\C[C@@H]1CC(=O)N(CCO)Cc1ccccc1	2	.	.	-7	-15	.	-15	.
COC(=O)c1ccc(OCC(=O)Nc2ccccc2C(=O)NC2CC2)cc1	-13	-13	.	1	-4	.	1	.
C/C(=N\NC(=O)CSCc1ccc([N+](=O)[O-])cc1)c1ccccc1	.	-1	-2	-3	-5	-14	23	i
CCC(C(=O)N1CCC(C(N)=O)CC1)n1nc(C)n2c(cc3occc32)c1=O (stereo unspecified)	-12	-12	-2	1	1	-11	-19	i
Cc1[nH]n(-c2cccc(Cl)c2)c(=O)c1C=NCC(C)C	.	-2	-9	5	3	-11	-18	i
COc1ccc(CN2CCNC(=O)C2CC(=O)N(C)Cc2nccs2)c(OC)c1 (stereo unspecified)	-22	-1	5	0	1	-2	-6	i
COC1CCCCC1Nc1ccc(C)c(C)c1 (stereo unspecified)	-7	-10	7	1	4	-3	.	i
CN(C)CCN(C(=O)c1ccc2ccccc2c1)c1nc2ccc(F)cc2s1	-6	4	1	2	1	-6	.	+
Cc1cccc(C(P(=O)(c2ccccc2)c2ccccc2)P(=O)(c2ccccc2)c2ccccc2)n1	.	-7	9	1	4	1	64*	i
CCC1CCCCN1Cc1nc2c(c(=O)n(C)c(=O)n2C)n1CCC(C)C (stereo unspecified)	-9	5	6	3	4	-7	.	i
O=C(Nc1cccc(NC(=O)c2ccc(Br)o2)n1)c1ccc(Br)o1	-6	-9	4	1	1	41	-49	.
O=C(Nc1ccc(Oc2ccccc2)cc1)c1ccco1	570*	8	8	-5	-4	2	.	i
